Screening results from PubChem.
NS1 inh: inhibitors of influenza NS1 protein function; S. cerevisiae slowed by influenza A NS1, growth recovery by OD600; Potency, µM (series often up to 46.1 µM), for inactives: at the highest dose activity, positive = more growth; hit rate 0.4% among 270,000; AID 2326; active means well fitted rising curve with a large enough effect; inconclusive means small, poorly fitted or top-dose-only effect; inactive means no such curve, though single readings can be large or run the other way; also: nearly all actives have a fitted effect of over 50% in size
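Growth recovery, yeast-based: influenza A NS1 expressed in S. cerevisiae causes slow growth, and suppressors are detected by OD600. The parent strain without NS1 is used as positive control.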
2A StopGo: FMDV 2A StopGo reporter, luciferase signal; Potency, µM (doses to about 57.9 µM), for the others: at the highest dose signal change, negative = less light; hit rate 1.2% among 410,000; human cells with a luciferase reporter of 2A StopGo recoding; control for the full effect not named in the record; active = well fitted falling curve with a large enough effect; inconclusive = small, poorly fitted or top-dose-only effect; inactive = no such curve, though single readings can be large or run the other way; tested in HEK293T cells; also: % is scaled to controls: 0 for no effect and ±100 for the full control effect; nearly all actives have a fitted effect of over 45% in size; luciferase light after 4 h
RE007 growth inh: less growth of the S. pombe RE007 Vpr strain; S. pombe RE007 Vpr strain, BacTiter-Glo ATP luminescence, 24 h; control for the full effect not named in the record; Potency, µM (doses to about 92.2 µM), for the others: top-dose activity change, negative = less growth; hit rate 0.21% among 360,000; AID 651644; active = well fitted falling curve with a large enough effect; inconclusive = small, poorly fitted or top-dose-only effect; inactive = no such curve, though single readings can be large or run the other way;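 also: % is scaled to controls: 0 for no effect and ±100 for the full control effect; nearly all actives have a fitted effect of over 50% in size; the assay follows cell death caused by Vpr and the record does not say whether a fall means rescue or toxicity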
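Fission yeast RE007 carrying one integrated HIV-1 vpr copy, seeded at OD 0.01 in PMG+AL medium with 23 nL pinned compound. Grown 24 h at 30 degrees; viability read by BacTiter-Glo luminescence after 5 min.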
SARS PLpro yeast: SARS-CoV PLP inhibition in yeast; S. cerevisiae expressing SARS-CoV PLpro, growth rescue; control for the full effect not named in the record; AID 485353; hit rate 0.19% among 330,000; Potency, µM (doses to about 32.9 µM), for inactives: at the highest dose activity, positive = growth rescue; active means well fitted rising curve with a large enough effect; inconclusive means small, poorly fitted or top-dose-only effect; inactive means no such curve, though single readings can be large or run the other way; also: 0% is about no effect; nearly all actives have a fitted effect of over 55% in size; growth read by luminescence after 48 h
Marburg entry inh: blocks Marburg virus binding to or entry into cells | hit rate 1.8% among 300,000 | Potency, µM (highest dose often 37.8 µM), without a hit: at the top dose activity change, negative = inhibition, usual class: inhibitors | Marburg virus pseudotyped entry inhibition, cell reporter; control for the full effect not named in the record; about a third of the inactives were read at about 46 µM; active = well fitted inhibition curve with a large enough effect; inconclusive = small, poorly fitted or top-dose-only effect, or effect the other way; inactive = flat fitted curve, though single readings scatter; tested in HEK293 cells; about a fifth of its hits are not listed in these tables; also: % is scaled to controls: 0 for no effect and ±100 for the full control effect; luciferase read-out
LASV entry inh: Lassa virus entry inhibition. Lassa virus pseudotype entry inhibition, cell reporter; control for the full effect not named in the record. Potency, µM (series often up to 37.9 µM), for the others: at the highest dose activity change, negative = inhibition, actives largely listed as inhibitors. hit rate 1.2% among 300,000. AID 540256; active means well fitted inhibition curve with a large enough effect; inconclusive means small, poorly fitted or top-dose-only effect, or effect the other way; inactive means flat fitted curve, though single readings scatter; tested in HEK293 cells; also: % is scaled to controls: 0 for no effect and ±100 for the full control effect; nearly all actives have a fitted effect of over 50% in size; luciferase read-out
Cruzain inh noDet: blocks cruzain activity in detergent-free assay; hit rate 2.3% among 200,000; Potency, µM, without a hit: max response, negative = inhibition, usual class: inhibitors; purified cruzain, Z-FR-AMC fluorescence, no detergent;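 also: plate controls were enzyme without inhibitor for no effect and buffer without enzyme for full effect; nearly all actives have a fitted effect of over 40% in size; top concentration of the series not given in the record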
Target sequence (P25779 123-467 limits assumed): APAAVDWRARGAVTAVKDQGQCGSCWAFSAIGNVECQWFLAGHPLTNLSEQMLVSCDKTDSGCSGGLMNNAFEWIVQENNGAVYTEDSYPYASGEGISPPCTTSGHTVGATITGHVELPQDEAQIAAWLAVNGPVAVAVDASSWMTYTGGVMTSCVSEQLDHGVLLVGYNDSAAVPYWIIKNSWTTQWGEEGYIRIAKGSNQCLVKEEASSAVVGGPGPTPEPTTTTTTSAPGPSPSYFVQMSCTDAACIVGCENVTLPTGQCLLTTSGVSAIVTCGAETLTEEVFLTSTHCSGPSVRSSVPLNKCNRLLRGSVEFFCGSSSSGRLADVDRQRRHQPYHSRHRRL
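Detergent-free condition (0.00005% Triton X-100) in acetate buffer pH 5.5 with DTT. 1.5 nM enzyme and compound were pre-mixed 15 min, then 2 uM Z-FR-AMC substrate added; reaction progress from fluorescence change between first and third reads (60 s).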
Cruzain inh Det: blocks cruzain activity in presence of Triton detergent; P25779; purified cruzain, Z-FR-AMC fluorescence, 0.01% Triton; Potency, µM, for inactives: max response, negative = inhibition, usual class: inhibitors; hit rate 0.43% among 200,000; AID 1478;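 also: plate controls were neutral wells for no effect and buffer without enzyme for full effect; nearly all actives have a fitted effect of over 40% in size; top concentration of the series not given in the record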
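Detergent-containing arm of a paired screen for aggregation-based inhibition: 0.01% Triton X-100 present. Cruzain at 1.5 nM cleaved 2 uM Z-FR-AMC at pH 5.5 with 5 mM DTT; AMC fluorescence gain over 60 s measured activity.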
Starred values were filed as active, the others as inactive; ? = inconclusive; nt = not tested or not shown; & = joins results of further samples; [ ] = remark or other dose. Unless noted, calls follow the shape of the dose curve; as a rule, active = well fitted curve in the direction sought with a large enough effect; inconclusive = small, poorly fitted or top-dose-only effect, or another doubt; inactive = no such curve, though single readings can be large; an effect the other way counts as inactive or inconclusive. Potency is read from the fitted curve at half-maximal effect.

entry	structure	Marburg entry inh	LASV entry inh	Cruzain inh Det	Cruzain inh noDet	RE007 growth inh	2A StopGo	SARS PLpro yeast	NS1 inh
1	Cn1cc(C=C2C(=O)CC(C)(C)CC2=O)c2ccccc21	9.0%[46.1 µM]	-13.6%[46.1 µM]	-8.5%	-3.3%	-12.5%	5.9%	6.8%	1.2%
2	CCN1CCN(c2ccc(N3CCN(S(=O)(=O)c4cc([N+](=O)[O-])ccc4C)CC3)nn2)CC1	-23.2%	-5.0%	nt	nt	-8.3%	-16.5%	-3.6%	nt
3	CC(CCc1ccccc1)NC(=S)NC1CCCCC1 (stereo unspecified)	4.1%[46.1 µM]	2.0%	nt	nt	2.1%	4.1%	0.8%	1.3%
4	COCCNC(=O)CSc1nc2nn(-c3ccccc3)c(=O)c-2c2n1CCCCC2	0.6%[46.1 µM]	8.6%	nt	nt	8.8%	3.0%	-2.0%	2.2%
5	Cc1ccc(S(=O)(=O)C2(C(=O)Nc3ccc(F)cc3)CC2)cc1	?	-4.4%	0.4%	3.3%	0.5%	-24.4%	-1.0%	3.8%
6	CCOC(=O)c1ccccc1NC(=O)c1sc2ccccc2c1Cl	nt	21.1%[46.1 µM]	-0.7%	4.6%	nt	19.7%	nt	nt
7	O=C(CCNC(=O)C1CCN(S(=O)(=O)c2ccc(F)cc2)CC1)Nc1nccs1	nt	nt	nt	nt	-2.9%	-4.6%	0.9%	-7.7%
8	O=C1/C(=C/c2ccccc2)SC(=S)N1CC(=O)N1CCCCC1c1cccnc1 (stereo unspecified)	nt	nt	nt	nt	4.3%	?	-54.8%	-51.1%
9	Cc1c(C)c2c(C)nn(-c3ccccc3)c2[nH]c1=O	?	0.9%	1.2%	-8.5%	2.4%	-3.0%	28.6%	-5.6%
10	O=C(O)CC1CCCc2ccccc2C1O (stereo unspecified)	26.4%&37.8%&37.8%&37.8%	-19.0%	2.3%	-6.6%	nt	nt	nt	-1.4%
11	COC(=O)Cc1cc(=O)[nH]c(/N=C(\N)Nc2ccc(C)cc2C)n1	3.0%	1.8%	1.7%	28.4%	26.3%	-15.9%	3.3%	-0.1%
12	COc1ccccc1OCCNC(=O)CNC(=O)c1ccc2c(c1)OCO2	-1.0%[46.1 µM]	-2.0%	nt	nt	2.0%	6.2%	-6.1%	nt
13	CCN(C(=O)Cn1c(=O)oc2cc(S(=O)(=O)N3CCCCC3)ccc21)c1ccccc1	16.8%[46.1 µM]	nt	-1.0%	-8.5%	nt	-15.7%	nt	nt
14	CC(C)c1onc(C(=O)NCc2ccccc2)c1[N+](=O)[O-]	?	5.6%	-2.8%	-3.7%	24.5%	12.4%	-1.3%	-2.6%
15	CCn1c(C)c(Br)c(=O)c(C(=O)OC)c1-c1ccc(Cl)cc1	nt	nt	nt	nt	3.9%	2.6%	-1.5%	2.4%
16	N#CC1(NC(=O)CSc2nc3ccc([N+](=O)[O-])cc3s2)CCCCC1	?	-7.1%	nt	nt	-6.5%	?	2.3%	nt
17	Cn1cc(CN2CCC(N3CCNC(=O)CC3)CC2)c(-c2ccccc2F)n1	-17.8%[46.1 µM]	27.3%[46.1 µM]	nt	nt	9.3%	7.5%	1.2%	2.4%
18	CC(C)(C)NC(=O)/C(=C\c1ccco1)NC(=O)c1ccco1	-7.6%[46.1 µM]	7.8%[46.1 µM]	nt	nt	-8.8%	0.7%	-1.4%	1.8%
19	CCOc1cc(NC(=O)c2ccco2)c(OCC)cc1NC(=O)c1ccco1	10.9%[46.1 µM]	10.3%[46.1 µM]	nt	nt	12.2%	-7.4%	-0.8%	5.2%
20	COc1ccc(CCNC(=O)CCSc2nc(-c3ccco3)cc(C(F)(F)F)n2)cc1	-6.5%	-26.4%	-5.8%	8.4%	-3.1%	-8.6%	5.8%	-2.0%
21	COc1ccc(OC)c(NC(=O)CCN2CCN(c3ccccc3F)CC2)c1	7.2%	?	2.0%	2.4%	21.1%	?	1.1%	-6.5%
22	C=CCSc1nc2ccccc2n1C(=O)/C=C/c1cc(OC)c(OC)c(OC)c1	13µM*	9.2µM*	-7.9%	?	-10.1%	8.91µM*	-1.0%	3.1%
23	O=C1COc2ccc(S(=O)(=O)N3CCC(C(=O)NCc4ccccc4)CC3)cc2N1	?	13.5%[46.1 µM]	nt	nt	-6.9%	1.1%	-3.9%	5.7%
24	Cc1ccc2c(c1)N(C(=O)CCC(=O)NCc1cccnc1)CCO2	nt	nt	nt	nt	-5.0%	43.5%[activator]	?	6.9%
25	O=C(NC1C/C(=N/O)c2cc3c(cc21)OCO3)C(F)(F)F (stereo unspecified)	1.7%[46.1 µM]	-6.7%[46.1 µM]	nt	nt	1.1%	0.0%	0.0%	-1.2%
26	COc1ccc(CNC(=O)CCC(=O)N2CCN(C(C)=O)CC2)cc1	5.2%[46.1 µM]	-17.2%	nt	nt	8.3%	-0.6%	0.3%	10.1%
27	Cc1ccc(NS(=O)(=O)c2ccc3[nH]c4c(c3c2)CCCCCC4)cc1	nt	-29.9%[46.1 µM]	-6.0%	-24.8%	nt	68.6%[activator]	nt	nt
28	CSc1nc(N2CCN(Cc3ccc4c(c3)OCO4)CC2)c2ccccc2n1	nt	nt	nt	nt	-7.5%	?	-1.2%	-10.3%
29	CN(C(=O)COc1ccc(Br)cc1Cl)C1CCCCC1	-4.6%[46.1 µM]	15.1%	nt	nt	12.6%	19.6%	-0.1%	-3.8%
30	Cc1nn2c(N3CCN(C4CCCC4)CC3)cc(C(C)(C)C)nc2c1-c1ccccc1	7.7%	-2.4%	1.6%	-4.4%	-7.9%	9.5%	1.3%	-2.4%
31	O=C(CCS(=O)(=O)c1cccc2nonc12)NCCc1ccccc1Cl	8.8%&8.8%	-12.1%	-6.2%	-0.8%	23.5%	6.8%	-2.7%	2.0%
32	CCCCCCC(=O)N(O)C1CC(=O)N(c2ccccc2)C1=O (stereo unspecified)	0.1%	nt	2.8%	-0.2%	nt	nt	-30.6%	-205.7%
33	Cc1cccc(CC2S/C(=N/N=C/c3ccco3)N(c3ccccc3)C2=O)c1 (stereo unspecified)	?	1.9%	-4.8%	-20.3%	-18.7%	?	-5.8%	6.6%
34	O=[N+]([O-])c1ccc(NN=CCCc2ccccc2)nc1	-7.2%[46.1 µM]	-40.9%[46.1 µM]	nt	nt	12.9%	14.6%	nt	nt
35	CC1CCN(S(=O)(=O)c2cccc(C(=O)N(Cc3ccccc3)c3ccccn3)c2)CC1	?	?	nt	nt	3.2%	8.1%	1.9%	-0.6%
36	O=C(O)CC1c2ccccc2S(=O)(=O)N1Cc1ccccc1 (stereo unspecified)	nt	nt	nt	nt	-1.9%	-17.5%	-1.3%	6.2%
37	Cc1ccc2c(C(=O)CN3CCCCC3)c(C)[nH]c2c1	nt	nt	nt	nt	-7.1%	0.8%	1.0%	6.7%
38	O=C(Nc1ccc(-c2cn3ccsc3n2)cc1)C1CCCC1	?	6.1%	2.8%	-3.1%	-10.7%	22.2%	-11.0%	-17.0%
39	Cc1cc(C)n(C(=O)CN2C(=O)COc3ccccc32)n1	0.8%	-18.7%[14.3 µM]	1.9%	11.5%	-2.4%	1.3%	-3.7%	-4.4%
40	CCOc1ccccc1NC(=O)c1c(Br)cnn1C	25.9%	19.1%	-2.6%	-11.9%	-20.2%	-18.8%	-10.8%	-15.0%

Three of the compounds above, with values under each structure.
Every second line gives: Marburg entry inh	LASV entry inh	Cruzain inh Det	Cruzain inh noDet	RE007 growth inh	2A StopGo	SARS PLpro yeast	NS1 inh
36. O=C(O)CC1c2ccccc2S(=O)(=O)N1Cc1ccccc1 (stereo unspecified)
  nt	nt	nt	nt	-1.9%	-17.5%	-1.3%	6.2%
37. Cc1ccc2c(C(=O)CN3CCCCC3)c(C)[nH]c2c1
  nt	nt	nt	nt	-7.1%	0.8%	1.0%	6.7%
38. O=C(Nc1ccc(-c2cn3ccsc3n2)cc1)C1CCCC1
  ?	6.1%	2.8%	-3.1%	-10.7%	22.2%	-11.0%	-17.0%

(more compounds)
entry	structure	Marburg entry inh	LASV entry inh	Cruzain inh Det	Cruzain inh noDet	RE007 growth inh	2A StopGo	SARS PLpro yeast	NS1 inh
41	CN(Cc1cn(-c2ccccc2)nc1-c1ccc(F)cc1)C(=O)CCC(=O)O	-6.5%	-3.2%	-0.6%	26.8%	6.8%	-20.4%	26.8%	8.4%
42	CC(=O)Nc1ccc(-c2csc(NCc3ccccc3)n2)cc1	-9.9%[46.1 µM]	13.3%	nt	nt	-4.0%	53.5%[activator]	-1.3%	8.3%
43	COc1cc(OC)cc(C(=O)NCC(=O)NC(C)c2ccccc2)c1 (stereo unspecified)	nt	nt	nt	nt	1.9%	-16.0%	1.6%	0.7%
44	Cc1cccc(NC2=NCCCS2)c1	0.0%	nt	nt	nt	4.1%	-5.0%	0.7%	-10.3%
45	CC(C)(C)Cc1nnc(NS(=O)(=O)c2ccccc2)s1	4.6%[46.1 µM]	1.5%	nt	nt	6.2%	-7.0%	0.0%	3.9%
46	O=C(CSc1nnc(Cc2ccccc2)o1)NCc1ccco1	9.7%	-1.4%	2.3%	5.9%	12.5%	17.0%	0.1%	15.5%
47	COc1cccc(Nc2ccc([N+](=O)[O-])c3nonc23)c1	?	-26.9%[46.1 µM]	nt	nt	-13.0%	-18.2%	5.8%	-19.5%
48	COc1ccc(Br)cc1CN(C)C(=O)c1ccccc1SCC(=O)N1CCCC1	?	?	nt	nt	-2.5%	51.0%[activator]	nt	nt
49	Cc1cc2ncn(C(=O)N3CCCC3)c2cc1C	27.2%	2.1%	0.6%	-3.0%	0.3%	27.5%	7.3%	0.0%
50	CCOC(=O)N1CCc2c(sc(NCc3ccc(N(C)C)cc3)c2C(=O)Nc2ccccc2OCC)C1	nt	?	-4.8%	5.5%	nt	?	nt	nt
51	COc1ccc(/C=C2\N=C3CCCCCN3C2=O)cc1	?	?	nt	nt	2.0%	48.4%[activator]	-0.2%	nt
